# Sa ugtP lethal: kills S. aureus RN4220 lacking UgtP. S. aureus RN4220 ugtP deletion, OD600 growth, 16 h; some inactives read as strong as hits. growth inhibition, % (test concentration not listed). hit rate 0.54% among 330,000;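 active = z-score under -3 and OD600 up to 0.15 on both plates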;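 note: plate controls were untreated wells for no effect and antibiotic for full effect; wells of about 80 µL received 100 nL stock; the first replicate is given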
# Bead autofluor: flagged as autofluorescent in microsphere protease counterscreen; compound autofluorescence counterscreen, microsphere flow cytometry; active compounds read high; fluorescence intensity (test concentration not listed); hit rate 3.1% among 360,000;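 active = at least 3 SD above the mean of all compounds, about 16000 in these data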;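 note: 100 nL of 1 mM stock went into each well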
# BJeLR viability: kills HRASV12-expressing BJeLR cells; BJeLR (HRASV12) viability, CellTiter-Glo ATP luminescence, 48 h; reference of the scale not given here; inhibition, % (test concentration not listed); hit rate 0.17% among 300,000; AID 1554;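 active = replicate mean above 50%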;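 note: 50 nL library stock added to about 25 µL; numbers are from one replicate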
# Mtb hypoxia rep: reduces hypoxia-regulated biosensor signal in M. tuberculosis; M. tuberculosis hypoxia-regulated fluorescent reporter, fluorescence; fluorescence inhibition, % (concentration not given with the values); hit rate 0.1% among 300,000; AID 1159583;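 active = 35 to 45% if threefold the growth effect, above 45% if 1.5-fold the growth effect; inactive = the rest, general growth blockers included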;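 note: wells of about 50 µL received 100 nL stock; 0% = vehicle wells and 100% = reference inhibitor wells; whole bacteria with a GFP reporter of the hypoxia response; strong numbers were not always called active; many hits fall short of the cut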
# PrP 5UTR inh: inhibition of PrP 5' UTR reporter expression; inhibition, % (concentration not given with the values); cell-based PrP 5' UTR mRNA reporter, plate reader; hit rate 0.35% among 340,000; AID 488862;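 active = every replicate at 50% or more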;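 note: 0 = median of the neutral control wells; tested in H4 reporter cells; numbers are from one replicate; inactives centre near -14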
# Sa RN4220 lethal: S. aureus RN4220 growth inhibition; inhibition, % (concentration not given with the values); AID 1259311; OD600, 16 h; hit rate 0.33% among 330,000;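 active = z-score of -3 or lower and OD600 up to 0.18 on both plates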;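 note: plate controls were untreated cells for no effect and reference antibiotic for full effect; stock transfer was 100 nL into about 80 µL; one replicate is shown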
# Mtb hypoxia rep growth: further read-out of Mtb hypoxia rep, marked with its call; growth inhibition, %; measured here: M. tuberculosis growth (absorbance);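 0% = vehicle and 100% = reference antibiotic; read after six days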
# Starred values were filed as active, the others as inactive; / = no result given; & = joins results of further samples.
no.	compound	Sa ugtP lethal	Bead autofluor	BJeLR viability	Mtb hypoxia rep	Mtb hypoxia rep growth	PrP 5UTR inh	Sa RN4220 lethal
1	COc1ccc2cc(CN(CC3CCCO3)S(=O)(=O)c3ccc(C(C)=O)cc3)c(=O)[nH]c2c1 (centres undefined)	5	7252	-9	8	1	-8	3.6
2	O=C(CSc1nc2c(c(=O)n1-c1ccc(Br)cc1)SCC2)NCC1CCCO1 (centres undefined)	-1	8834	-11	7	6	-33	5.7
3	Cc1ccc(NC(=O)C2CCN(S(=O)(=O)c3cccc4cccnc34)CC2)nc1	5	5136	1	/	/	-19	-1.0
4	COc1ccc(C2CC(=O)C=C(c3ccc4ccn(C)c4c3)C2)cc1 (centres undefined)	5	/	/	17	8	/	6.8
5	CCC1(C)Cc2ccccc2-c2c1c(=O)n(-c1ccc(C)cc1)c1nnnn21 (centres undefined)	2	3260	10	-11	9	-14	1.5
6	O=C(CNS(=O)(=O)c1cccs1)N1CCCC1	1	2584	8	/	/	4	4.9
7	CCOC(=O)CNC(=O)CSc1nnc(NC(=O)c2ccccc2Cl)s1	-3	4280	-22	15	3	-14	17
8	COc1ccccc1CNc1nc2nc(C)c(C)c(=O)n2[nH]1	7	4225	-3	3	5	-17	-0.2
9	COc1cccc(C(N)=O)c1OC(=O)Cc1ccccc1F	5	3673	7	8	-2	-31	2.5
10	CN(CC(=O)O)c1ccc(C(F)(F)F)cc1[N+](=O)[O-]	2	3517	5	-3	7	-6	3.5
11	Cc1ccn(CC(=O)NC2CCCN(Cc3ccc(CC(C)C)cc3)C2)n1 (centres undefined)	-5	5464	2	4	9	-21	-2.3
12	CCCCNC(=S)N(CCN(C)C)Cc1cc2cc3c(cc2[nH]c1=O)OCCO3	10	3516	-6	16	14	-15	6.3
13	CN1/C(=C\C=Nc2cc(S(=O)(=O)N3CCOCC3)ccc2N2CCOCC2)C(C)(C)c2ccccc21	5	2247	2	4	4	-18	5.1
14	CCCCc1c(C)c2cc(C)ccc2[nH]c1=O	-7	9672	-13	15	0	7	4.4
15	Cc1ccc(CNc2oc(-c3ccco3)nc2S(=O)(=O)c2ccccc2)cc1	-17	4056	0	5	5	-20	-3.8
16	COc1ccc(CCCC(=O)NN=Cc2ccc(C)cc2)cc1	1	/	/	11	6	/	5.2
17	CN(C)c1ccc(NC(=O)CN2C(=O)CN=C(c3ccccc3)c3ccccc32)cc1	-1	2797	6	-3	1	-3	5.9
18	Cc1cc(C)c2cc(C#N)c(N3CCCN(C(=S)NCCCN(C)C)CC3)nc2c1	6	4204	24	-2	1	0	-2.0
19	COc1ccc(OCc2nc3c4c(ncn3n2)-c2ccccc2CC42CCCC2)cc1	79	2391	4	9	1	-24	1.5
20	CC(=O)OC1CC2(C)C(CCC2(O)C(C)=O)C2CCC3C(Cl)C(=O)CCC3(C)C12 (centres undefined)	2	3379	/	18	8	-23	6.1
21	c1ccc(-c2ccc(-c3nc(-c4ccccn4)no3)cc2)cc1	1	8178	81*	2	-7	89*	25
22	O=C(CN1C(=O)C(=O)N(Cc2ccco2)C1=O)Nc1ccc(F)c(F)c1F	2	3733	/	-1	14	-16	2.4
23	Cc1ccc(NC(=O)C2CCCNC2=O)nc1 (centres undefined)	0	4780	3	6	1	3	2.6
24	COc1cc(C(=O)OC(C)CN2CCOCC2)cc(OC)c1OC (centres undefined)	6&2	2923&3432	4&2	5	6	-14&-21	5.2&2.6
25	COc1ccc(CNC(=O)C[C@H]2C(=O)N(c3ccccc3)C[C@@H]2Cc2ccccc2)cc1	-10	3777	1	-1	9	-16	-12
26	Cc1cnc(C(=O)OCc2nc3ccccc3o2)cn1	7	4278	/	7	4	-17	5.3
27	Cc1ccc(C(=O)CCS(=O)(=O)c2ccc(Br)cc2)cc1	9	5733	-4	8	1	-2	4.0
28	OC(COc1ccc(Cl)cc1)CN1CCCCC1 (centres undefined)	0	12224	-8	4	13	-12	1.7
29	COc1ccc(C(=O)Nc2ccc(S(=O)(=O)N3CCCC3)cc2)cc1	2	4435	4	-2	1	-34	-1.2
30	Cc1ccc(-c2ccc(CCC(=O)O)n2C(C)C)cc1	0	5948	6	/	/	-24	1.0
31	CCN(CC)c1ccc(C(=O)N/N=C/c2ccc(OC)cc2OC)cc1	/	4592	2	/	/	-11	/
32	O=C(c1ccc(F)cc1)C1CCN(C(=O)c2ccccc2F)CC1	9	3491	0	24	14	-7	6.4
33	COc1cc2c(=O)n(CCCC(=O)NCC3CCCO3)c(=O)n(CC(=O)c3ccc(F)cc3)c2cc1OC (centres undefined)	6	5427	0	10	9	-11	6.9
34	COC(=O)Nc1ccc2c(c1)Nc1ccccc1CC2	5	3547	-6	14	7	-38	-4.5
35	O=C(Nc1ccc(Cl)cc1)Nc1ccccc1Sc1ncc([N+](=O)[O-])s1	/	4341	3	/	/	-42	/
36	O=C(NCCCO)NC12CC3CC(CC(C3)C1)C2	1	19797*	-7	11	-1	-7	4.6
37	O=C(CSc1ccc(-c2ccc(F)cc2)nn1)Nc1ccc2c(c1)OCCO2	-7	2223	-2	1	0	-13	-2.4
38	CCn1ccc2cc(OC)ccc2c1=S	7	3629	-4	6	8	-25	2.6
39	O=C1NC(=O)N(c2ccc3c(c2)OCO3)C(=O)/C1=C\c1ccc(N2CCCCC2)o1	-1	3186	9	6	-3	-19	-1.1
40	C=CCn1c(C)cc(C(=O)COC(=O)/C=C/c2ccc(OC)cc2)c1C	23	4614	8	6	9	-18	4.2
41	O=C(NC1CCCCC1)c1cccc2c1C(=O)c1ccc(-c3ccc(OC(F)(F)F)cc3)cc1S2(=O)=O	17	2978	/	4	1	5	17
42	Cc1cc(SCC(=O)NC(=O)c2cccn2C)nc2ccccc12	-5	4357	1	12	8	6	5.1
43	CCCn1nnc(NC(=O)c2ccc(Br)cc2)n1	1	7842	-1	-8	-13	-58	3.3
44	COc1ccc2nc3ccccc3nc2c1NC(=O)c1ccc(Br)cc1	-2	2338	-15	-9	0	-12	4.2
45	Cc1cccc(C)c1NC(=O)Cn1nc(-c2ccc(Cl)s2)ccc1=O	9	4130	5	5	3	2	3.4

# Full records as entered above:
# O=C1NC(=O)N(c2ccc3c(c2)OCO3)C(=O)/C1=C\c1ccc(N2CCCCC2)o1 is listed with Sa ugtP lethal = -1; Bead autofluor = 3186; BJeLR viability = 9; Mtb hypoxia rep = 6; Mtb hypoxia rep growth = -3; PrP 5UTR inh = -19; Sa RN4220 lethal = -1.1
# O=C(Nc1ccc(Cl)cc1)Nc1ccccc1Sc1ncc([N+](=O)[O-])s1 is listed with Sa ugtP lethal = /; Bead autofluor = 4341; BJeLR viability = 3; Mtb hypoxia rep = /; Mtb hypoxia rep growth = /; PrP 5UTR inh = -42; Sa RN4220 lethal = /

# Further entries follow:
no.	compound	Sa ugtP lethal	Bead autofluor	BJeLR viability	Mtb hypoxia rep	Mtb hypoxia rep growth	PrP 5UTR inh	Sa RN4220 lethal
46	CCCCN(C(=O)C1=CC=CN2CCS(=O)(=O)N=C12)c1ccccc1	13	4677	/	0	-5	-15	6.9
47	Cn1nc2sc3ccccc3n2c(=O)c1=O	5	4164	-8	9	1	-7	4.1
48	CC(C)COc1ccc(C(=O)Nc2ncn[nH]2)cc1	4	4535	5	5	-3	-21	4.7
49	Cc1nn2c(=O)c3c4c(sc3nc2n1-c1ccccc1)COC(C)(C)C4	-2	/	1	4	10	/	0.2
50	CC(=O)N1CCN(c2ccccc2NC(=O)COc2cc(C)ccc2C(C)C)CC1	-17	2830	-3	/	/	-2	5.8
51	COCc1cc(C)n(CC(=O)Nc2ccc(N3CCOCC3)cc2)c(=O)c1C#N	3	5962	-3	-14	-1	-1	0.4
52	COc1ccc(N2CC(C(=O)OCC(=O)c3ccccc3)CC2=O)cc1 (centres undefined)	9	2880	1	13	9	-15	5.6
53	O=C(NN=Cc1ccc(O)cc1)/C(=C/c1ccccc1)CCO	-3	/	/	4	7	/	-0.1
54	CC(C)(C)N(Cc1ccccc1)C(=O)CN1C(=O)c2ccccc2C1=O	8	3580	-2	8	-3	-38	0.9
55	CCCCCCn1c(O)c(/C=N/N2CCCCCC2)c(=O)[nH]c1=O	4	4216	0	8	-8	-24	2.0
56	Cc1cccc(NC(=O)CN(c2ccc(F)cc2)S(C)(=O)=O)c1	1	3411	-11	-8	7	-16	-2.5
57	O=C(N/N=C/c1cc([N+](=O)[O-])ccc1O)c1ccc(COc2ccc3c(c2)CCC3)o1	/	5534	2	/	/	8	/
58	Cc1ccc(NC(=O)C(c2ccccc2)N2CCN(C(=O)c3ccco3)CC2)cc1Cl (centres undefined)	0	8477	/	6	-4	-6	0.9
59	CCOC(=O)c1nc2ccccc2s1	-5	3160	3	7	10	-17	-2.2
60	O=[N+]([O-])c1ccc(Cl)c(C=NN2CCN(Cc3ccccc3)CC2)c1	-3	/	/	7	11	/	3.2
61	COC(=O)[C@@]1(Cc2ccccc2)C=C[C@@H](C)N1C(C)=O	/	3220	4	/	/	-31	/
62	CCC(C)C1CNCCN1CCc1cccc(F)c1 (centres undefined)	-5	/	/	6	10	/	2.0
63	O=C(NCc1cccnc1)NC(C(F)(F)F)C(F)(F)F	-4	2808	5	16	4	-17	-7.5
64	CCOC(=O)N1CCN(C(=O)CN2C(=O)COc3ccc(C(C)(C)C)cc32)CC1	6	9384	6	6	8	-14	0.5
65	N#Cc1cnn2c3c(cnc12)C(=O)N1CCc2ccccc2C1C3 (centres undefined)	-9	4177	5	-4	-10	-39	2.4
66	CC1CN(C(C)CO)C(=O)c2cccc(NC(=O)CCCCCC(=O)Nc3ccccc3N)c2OC1CN(C)Cc1ccncc1 (centres undefined)	-5	/	/	3	9	/	3.9
67	CCOC(=O)c1sc2ncn(C(CC)C(=O)OC)c(=O)c2c1C (centres undefined)	2	10060	0	6	0	-18	7.0
68	O=C(CC(=O)Nc1ccc(Br)cc1)Nc1ccc(Br)cc1	-1	2975	1	0	-8	-4	0.7
69	CCOc1ccc(C2CC(c3ccccc3)Nc3nc(N)nn32)cc1 (centres undefined)	3	18914*	-4	3	1	-5	3.6
70	CC(C)(C)NC(=O)/C(=C/c1cccnc1)NC(=O)c1ccco1	-1	6313	-1	-1	4	/	1.4
71	Cc1ccc(/C=N/NC(=O)c2ccoc2C)s1	/	2582	3	/	/	-98	/
72	CCCCNCc1cc(Br)c(OCc2cccs2)c(OC)c1	-20	3768	16	17	12	-14	-3.4
73	Cc1cccc(/C(N)=N/OC(=O)COc2ccccc2Cl)c1	28	2164	/	2	-4	-46	-8.5
74	CC(C)CC(=O)NNC(=O)c1ccc(Cl)cc1	-1	2061	2	11	-4	-21	1.6
75	COc1cc2c(cc1OC)C(c1ccc(Cl)cc1)=NCC2	2	3271	-1	21	13	-17	3.1
76	CCOC(=O)C1(C)NC(c2cccs2)C2C(=O)N(c3ccccc3)C(=O)C21 (centres undefined)	-2	1977	-8	5	2	-11	-1.2
77	O=C1C2C3C=CC(C3)C2C(=O)N1c1ccccc1OS(=O)(=O)c1ccccc1 (centres undefined)	2	10454	3	5	0	-17	11
78	N#CCC(=N)N1CCN(c2ccccc2Cl)CC1	-8	3165	6	/	/	-22	-0.4
79	Cc1nc2ccc(NC(=O)c3cncc(Br)c3)cc2s1	8	4949	8	8	18	-36	5.2
80	COC(=O)CC1C(=O)NCCN1C(=O)c1c(F)cccc1F (centres undefined)	8	3237	10	2	-1	-21	-2.8
81	O=C(NC1CCC(=O)N(CCOc2ccccc2)CC1)OCc1ccccc1 (centres undefined)	0	3471	-2	5	1	-16	1.3
82	CC(C)Cc1nnc(NC(=O)CCC(=O)NCCc2ccc(Cl)cc2)s1	2	5097	-10	10	-8	-18	-1.1
83	Cc1ccccc1-c1cc(C(=O)NCc2cccc(Br)c2)n(CC2CC(c3cccnc3)=NO2)n1 (centres undefined)	-1	4277	/	3	5	-4	-4.6
84	CCC(=O)NCc1nc2ccccc2n1Cc1ccccc1F	1	3007	-4	9	5	-10	1.6
85	COc1ccc(C(O)c2nccc3cc(OC)c(OC)cc23)cc1OC (centres undefined)	15	3210	-15	12	12	-5	-9.4
86	COc1ccc(N2CC(C(=O)N/N=C/c3cc([N+](=O)[O-])ccc3O)CC2=O)cc1 (centres undefined)	/	4524	1	/	/	-11	/
87	Cc1ccc(-c2nc3ncccn3c2Nc2ccc3c(c2)OCO3)o1	1	3570	20	/	/	1	-0.4

# Screening data as filed in PubChem BioAssay.
